Source: PubChem
Tg IFNy HTS: T. gondii growth inhibition under IFN-gamma; Toxoplasma gondii growth in IFN-gamma-treated host cells; stronger effect = lower value; reference of the scale not given here; activity change, negative = inhibition, %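 (about 20 µM by stock and volumes)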; 3.8% of 69,000 active;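 active means below -70%; inconclusive means fit judged invalid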;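 further: host cells are HeLa cells infected with Toxoplasma gondii; parasite growth read as luciferase light; one replicate is shown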
Active calls of the source: *; ? = inconclusive; & = joins results of further samples.

SMILES | Tg IFNy HTS
CCOC(=O)c1cccc(C(=O)OCC)n1 | -1
CS(=O)(=O)CS(=O)(=O)Nc1cccc(OC(F)(F)F)c1 | 52
CCOC(=O)c1c(NC(C)=O)sc2c1CCCC2 | -11
Cc1ccc(C(=O)CSc2nc(C)cc(C)c2C#N)cc1 | ?
c1ccc(OCCSC2=NCCN2)cc1 | 6
CCN(CC)CC1CCN(c2ncc3ncnc(Nc4ccc(F)c(Cl)c4)c3n2)CC1 | 4&-8
Cc1cccc(NC(=O)Cn2ncc3c(N4CCOCC4)ncnc32)c1C | 162
Oc1c(Cl)cc(-c2nc3cnccn3c2NCC2CCCO2)cc1Cl (stereo not given) | -11
COC(=O)c1c(C)noc1-c1ccno1 | 0
Nc1nc(CSCc2ccco2)nc(N2CCCCC2)n1 | 14

Brought forward from above: two compounds, then new ones.
SMILES | Tg IFNy HTS
COC(=O)c1c(C)noc1-c1ccno1 | 0
Nc1nc(CSCc2ccco2)nc(N2CCCCC2)n1 | 14
Cc1ccc2nc3c(n2c1)C(c1ccccc1-c1ccc(C)o1)CC(=O)NC3 (stereo not given) | -17
COc1ccc(Cl)cc1NC(=O)Nc1ccccc1 | -83*
C=CCN(C)Cc1cccc(C(=O)Nc2cnn(C)c2)c1 | -53
CCN1C(=O)[C@@H]2CN(CCOC)C[C@@H]2C12CCN(S(=O)(=O)Cc1ccccc1)CC2 | 39
COc1ccc2c(c1)NC1(CCN(CCN3C(=O)c4ccccc4C3=O)CC1)c1cccn1-2 | 155
COc1cc(NC(=O)c2ccc(CN3CC=CC3)cc2)cc(OC)c1 | 182
CO[C@H]1C=CO[C@@]2(C)Oc3c(C)c(O)c4c(O)c(c(/C=N/N5CCN(C6CCCC6)CC5)c(O)c4c3C2=O)NC(=O)/C(C)=C\C=C[C@H](C)[C@H](O)[C@@H](C)[C@@H](O)[C@@H](C)[C@H](OC(C)=O)[C@@H]1C | -12
CC(NC(=O)c1c(O)c2cccnc2n(-c2cccc(F)c2)c1=O)c1ccccc1 (stereo not given) | -109*
COc1ccc(CN2CCO[C@@H]3CN(C(C)=O)CC[C@@H]3C2=O)cc1 | -13
Nc1ccc(-n2cc(CCO)cn2)cn1 | 2
COc1ccc(C(=O)Nc2ccc3c(c2)C(=O)N(C)[C@@H]2CC[C@@H](CC(=O)NCC4CC4)O[C@H]2CO3)cc1 | 11
O=C(C[C@@H]1CC[C@@H]2[C@H](COC[C@@H](O)CN2C(=O)c2cnccn2)O1)N1CCN(c2ccccc2)CC1 | 15
CCS(=O)(=O)N1C[C@@H](OCc2cccnc2)[C@@H]2OCCC[C@@H]21 | 4
CC(NC(=O)c1cnn2c1CCCC2)c1cn2ncsc2n1 (stereo not given) | 64
Cc1oc(-c2ccccc2)nc1Cn1nnc(-c2nc(-c3ccc(C(F)(F)F)cc3)no2)c1C | -3
COc1cccc(OCc2cc(C3Nc4ccccc4C(=O)N3Cc3ccco3)ccc2OC)c1 (stereo not given) | 47
O=S(=O)(N1CCCCCC1)N1CC[C@@H](c2ccc3c(c2)OCO3)[C@H](O)C1 | 4
CN1C(=O)CCc2cc(NS(=O)(=O)c3ccc(Br)cc3)ccc21 | -95*
CCN(CC)C(=O)CSc1nc(O)c(CCC(C)C)c(=O)[nH]1 | 1
CCN(CC)c1ccc(C2=NNC(=O)CC2C)cc1[N+](=O)[O-] (stereo not given) | -98*

16 structures already listed, sorted by formula weight, smallest number first:
SMILES | Tg IFNy HTS
COc1ccc(Cl)cc1NC(=O)Nc1ccccc1 | -83*
CCN(CC)c1ccc(C2=NNC(=O)CC2C)cc1[N+](=O)[O-] (stereo not given) | -98*
CC(NC(=O)c1cnn2c1CCCC2)c1cn2ncsc2n1 (stereo not given) | 64
CCS(=O)(=O)N1C[C@@H](OCc2cccnc2)[C@@H]2OCCC[C@@H]21 | 4
CCN(CC)C(=O)CSc1nc(O)c(CCC(C)C)c(=O)[nH]1 | 1
COc1ccc(CN2CCO[C@@H]3CN(C(C)=O)CC[C@@H]3C2=O)cc1 | -13
COc1cc(NC(=O)c2ccc(CN3CC=CC3)cc2)cc(OC)c1 | 182
O=S(=O)(N1CCCCCC1)N1CC[C@@H](c2ccc3c(c2)OCO3)[C@H](O)C1 | 4
CN1C(=O)CCc2cc(NS(=O)(=O)c3ccc(Br)cc3)ccc21 | -95*
CC(NC(=O)c1c(O)c2cccnc2n(-c2cccc(F)c2)c1=O)c1ccccc1 (stereo not given) | -109*
CCN1C(=O)[C@@H]2CN(CCOC)C[C@@H]2C12CCN(S(=O)(=O)Cc1ccccc1)CC2 | 39
COc1ccc2c(c1)NC1(CCN(CCN3C(=O)c4ccccc4C3=O)CC1)c1cccn1-2 | 155
COc1cccc(OCc2cc(C3Nc4ccccc4C(=O)N3Cc3ccco3)ccc2OC)c1 (stereo not given) | 47
O=C(C[C@@H]1CC[C@@H]2[C@H](COC[C@@H](O)CN2C(=O)c2cnccn2)O1)N1CCN(c2ccccc2)CC1 | 15
COc1ccc(C(=O)Nc2ccc3c(c2)C(=O)N(C)[C@@H]2CC[C@@H](CC(=O)NCC4CC4)O[C@H]2CO3)cc1 | 11
CO[C@H]1C=CO[C@@]2(C)Oc3c(C)c(O)c4c(O)c(c(/C=N/N5CCN(C6CCCC6)CC5)c(O)c4c3C2=O)NC(=O)/C(C)=C\C=C[C@H](C)[C@H](O)[C@@H](C)[C@@H](O)[C@@H](C)[C@H](OC(C)=O)[C@@H]1C | -12

(further entries)
SMILES | Tg IFNy HTS
C[C@H](CO)N1C[C@H](C)[C@@H](CN(C)C(=O)CCC(F)(F)F)OCCCC[C@H](C)Oc2ccc(NC(=O)C3CCCCC3)cc2C1=O | -13
Fc1cccc(CN2CCCC3(COCCN(CC4CC4)C3)C2)c1 (stereo not given) | -43
O=C(O)c1cc(-c2ccc3c(c2)OCO3)cc(S(=O)(=O)N2CCSCC2)c1 | -1
CC(C)C(=O)c1cc2c(s1)CCN2c1ncccn1 | 36
COc1cccc2ccc(N3CCC4(CC3)CN(C)CCN4C)nc12 | -1
COc1c(-c2coc3cc4c(cc3c2=O)CC(O)C(C)(C)O4)ccc2c1C=CC(C)(C)O2 (stereo not given) | ?
CCC(=O)Nc1ccc(OCC(=O)N2CCCC2c2ccccc2C)cc1 (stereo not given) | -10
Cc1cc(N2CCN(C(=O)c3ccccc3Cn3cncn3)CC2)nc2ccccc12 | -51
Cc1cnc(N2CCC3(CCC(C(=O)NC(C)C)OC3)CC2)nc1 (stereo not given) | 0
O=C1CS/C(=N\c2ccccn2)N1C1CCCCC1 | -1
CCCn1ncc(C(=O)N2CCC3(CN(C)C(=O)O3)C2)c1C (stereo not given) | 3
COc1ccc(C(=O)Nc2c(Cl)cncc2Cl)cc1OC1CCCC1 | 10
CC(C)N1CCNC(=O)C1CC(=O)NC1(CN2CCCC2)CCCCC1 (stereo not given) | -3
CNc1cc(C(=O)N(Cc2cccnc2)Cc2ccc3c(c2)OCO3)ccn1 | -5
c1ccc(C[C@H]2[C@H](OCC3CC3)CCN2Cc2cccnc2)cc1 | 9
COc1ccccc1CNc1nc(C(C)n2cnc3ccccc32)cc(=O)[nH]1 (stereo not given) | 0
Cc1nnsc1C(=O)Nc1ccc2c(c1)OCC(=O)N2 | -16
COc1ccc(C(=O)C2CCCN(C(=O)CCc3nc4ccccc4s3)C2)c(C)c1 (stereo not given) | -14
O=C(NCc1cccs1)C1CN(C(=O)c2cccc(Cl)c2)CC12CCOCC2 (stereo not given) | -49
COc1ccc(N=C2SC(C(N)=O)CC(=O)N2Cc2ccccc2)cc1 (stereo not given) | -46
Cc1nc(SCc2cc(=O)[nH][nH]2)c2oc3ccccc3c2n1 | -43
Cc1ccoc1C(=O)NCC1CCN(Cc2ccc3nonc3c2)C1 (stereo not given) | -3
CC1CCCC(C)N1C(=S)NCCCN1CCOCC1 (stereo not given) | -80*
CC12COC3(C(=O)Nc4ccc(F)cc4)CC1CCC32C (stereo not given) | -37
CC(C)(C)c1cc(C2=NNC(O)(C(F)(F)F)C2)c2c(c1)C(C)(C)CC2 (stereo not given) | -100*
Cc1c(C(=O)N2CCC(C3Nc4ccccc4S(=O)(=O)N3)CC2)[nH]c2c1C(=O)CCC2 (stereo not given) | -8
COc1ccccc1-c1cn(CC[C@H]2CC[C@@H](NC(=O)C3CCCCC3)[C@H](CO)O2)nn1 | -17
CN(Cc1ccc(OC2CCCC2)cc1)Cc1nnc(-c2ccccc2)o1 | 4
O=C(Nc1ccc(F)cc1Cl)c1nc(Nc2ccccc2)c2ccccc2n1 | -17
Cc1nnc(SCCCNC2CCC3(CCNCC3)CC2)s1 | 127
CCN1Cc2ccccc2CC2(CCN(CC(=O)O)CC2)C1=O | -18
CCOc1ccccc1NC(=O)C(=O)NCCc1csc(-c2ccc(F)cc2)n1 | -8
C[C@H](CO)N1C[C@H](C)[C@@H](CN(C)C(=O)[C@H](Cc2ccccc2)N(C)C)OCc2ccccc2-c2c(n(C)c3ccccc23)C1=O | 33
COc1ccc(-c2ncc(CN3CCCC(C(=O)c4cccc(OC(C)C)c4)C3)cn2)cc1 (stereo not given) | -59
O=C(NC1CC1)c1cc(NCCOc2cccc3cccnc23)ccn1 | 9
N#C[C@@H]1[C@H](c2ccccc2-c2cccc(F)c2)[C@H](CO)N1C(=O)c1cccnc1 | -49
O=C(Nc1cccc(-n2cnnc2)c1)C1Cc2cc(Cl)ccc2O1 (stereo not given) | 37
CSc1ncccc1C(=O)N1CC(=O)N(C2CCCCC2)CC(OCc2ccncc2)C1 (stereo not given) | 8
CC(=O)Nc1ccc(C(=O)N(c2ccc(C)c(C)c2)C2(C(=O)NCc3ccccc3)CCN(C(C)=O)CC2)cc1 | -7
Cc1nc(-c2cc(S(=O)(=O)N3CCC(C)CC3)c(C)s2)sc1C | 16
COc1ccc2c(c1)c(-c1cn3nc(-c4ccccn4)c(-c4ccccn4)nc3n1)c(C)n2C | 30
COc1ccc(S(=O)(=O)Nc2cncc(C(=O)Nc3ccc(F)cc3F)c2)cc1OC | 35
C[C@H](CO)N1C[C@H](C)[C@H](CN(C)Cc2ccc(Cl)c(Cl)c2)Oc2ccc(NC(=O)C3CCCCC3)cc2CC1=O | -52
Cn1cc(NC(=O)CN2CCCCC2c2nc3ccc(F)cc3[nH]2)cn1 (stereo not given) | 16
CCn1c(=O)c(-c2nc(-c3ccc(OC)cc3)no2)c(O)c2ccc(F)cc21 | 13
c1ccc(N/N=C2/CCCc3nonc32)cc1 | 40
CC(C)c1ocnc1C(=O)N1CCc2onc(-c3ccc(F)c(F)c3)c2C1 | -11
Cc1cccc(C)c1NC(=O)CN1CCC(Nc2nc3c(c(=O)[nH]2)CCCC3)CC1 | -13
COc1cc(N2CCC3(CC(=O)N(c4cccc(C#N)c4)C3)C2)ncn1 (stereo not given) | -10
c1ccc2c(c1)CN(c1ncnc3c1CCNC3)CCO2 | 6
Continuation:
SMILES | Tg IFNy HTS
Cc1[nH]nc(CCC(=O)N2CC[C@@H](c3ccc4ccccc4c3)[C@H](O)C2)c1C | 0
CC(=O)Nc1ccc(C(=O)N(c2cccc(C)c2)C2(C(=O)NCc3ccccc3)CCN(C(C)=O)CC2)cc1 | 62
Cc1ccc(NC(=O)Nc2ccc3c(c2)C(=O)N(C)[C@@H]2CC[C@H](CC(=O)NCC(F)(F)F)O[C@@H]2CO3)cc1 | 15
COCCC(=O)c1ccc2ccc(N3CCN(Cc4cccnc4)CC3)n2c1 | 44
O=C(O)c1ccc2c(c1)OCO2 | 20
CCOC(=O)c1cnc2c(OC)cccc2c1NCc1ccco1 | -24
Cc1cccc(C(=O)N2C[C@H]3CN(c4ccsc4)C(=O)[C@H]3C2)n1 | 3
CCOC(=O)C1CCN(C(=O)c2ccc(F)cc2)CC1 | 11
Nc1nnc(CCCNC(=O)CN2CCOc3ccccc3C2)s1 | 31
CO[C@H](CN(C)S(=O)(=O)c1cccc(Cl)c1)[C@@H](C)CN(C(=O)Nc1ccccc1F)[C@H](C)CO | 82
CN(Cc1ccncc1)C1COC2(CCN(c3ncccn3)CC2)C1 (stereo not given) | -4
CCCNc1nc(-c2nnc(-c3cccc(C)c3)o2)nc2ccccc12 | -98*
CCN1CC(Cn2ccnc2-c2cccc3nonc23)CC1=O (stereo not given) | -41
Cn1nccc1CN1CCCC2(CCNC2=O)CC1 (stereo not given) | 3
CCS(=O)(=O)N1Cc2nccn2CC(Cn2cccn2)C1 (stereo not given) | -60
COCCN1CCC2(CCCN(C(=O)c3cc(C)[nH]n3)CC2)C1=O (stereo not given) | 34
O=C(Cc1ccc(F)cc1)N1CCC2C1CC(=O)N2c1cccnc1 (stereo not given) | -2
COc1ccc(-c2cc(C(=O)Nc3ccc(C)cc3-c3cc(C)[nH]n3)no2)cc1 | -78*
O=S(=O)(CCN(CCS(=O)(=O)c1ccccc1)c1ncccn1)c1ccccc1 | -13
O=S1(=O)N[C@H]2CCCN2c2ccccc21 | -4
Cc1ccc2c(c1C)-n1cccc1C1(CCN(C(=O)Cc3ccc(Cl)cc3)CC1)N2 | 299
COc1cccc(-c2ccc3c(C4CCCN4C(=O)NC(C)C)nnn3c2)c1 (stereo not given) | 5
Cc1ccc(-c2nc(CCNC(=O)C(=O)Nc3ccccc3)cs2)cc1 | 119
COCC(=O)N1CC2(C1)CN(Cc1ccccc1F)[C@@H](CO)c1[nH]c3cc(OC)ccc3c12 | 85
CCCN1CCC(c2nc3ccc(-c4ccncc4)cn3n2)CC1 | 2
COc1cccc(-c2ccc(C3[C@H]4CNC[C@@H]3N4Cc3nccs3)cc2)c1 (stereo not given in full) | -39&-21
Cc1ccc2c(c1)c(CNC1CCC3(CCNCC3)CC1)nn2C | -17
CCC12CN3CC(C)(CN(C1)C3c1c[nH]c3ccccc13)C2=O (stereo not given) | 2
Cc1ccc(NC(=O)N2CCC(c3nc(C(=O)N4CCCC4)c(C)o3)CC2)cc1C | -43
C[C@H]1CN([C@@H](C)CO)C(=O)c2cccc(NC(=O)C3CCOCC3)c2O[C@@H]1CN(C)C(=O)Nc1cccc2ccccc12 | 5
CCN(C)C(=O)Oc1cccc([C@H](C)N(C)C)c1 | 3
COc1ccc(Cn2cc(C(=O)N3CCCC3c3nc(C(C)C)no3)nn2)cc1 (stereo not given) | 0
CC(=O)N1CCN(c2ccc(NC(=O)COc3cccc(C)c3C)cc2Cl)CC1 | -15
CC(C)c1cc(C(=O)NC(c2ccccc2)c2ccnn2C)n(C)n1 (stereo not given) | 19

A portion of the library, so the mix of outcomes need not match the whole.
